Screening data: PubChem BioAssay, National Center for Advancing Translational Sciences (NCATS)
VACV mCherry inh – inhibitors of vaccinia virus infection (mCherry reporter signal) | Vaccinia virus mCherry reporter infection, fluorescence; about a quarter of the inactives have no number | Potency, µM (top dose mostly 36.5 µM), for the others: at the highest dose activity change, negative = inhibition, actives largely listed as inhibitors | 310,000 tested, 0.63% active | AID 720579; active = well fitted inhibition curve with a large enough effect; inconclusive = small, poorly fitted or top-dose-only effect; inactive = no such curve, though single readings can be large or run the other way; tested in A549 cells; note: nearly all actives have a fitted effect of over 35% in size; inactives centre near -10
Vaccinia Venus – vaccinia inhibition (Venus reporter). 330,000 tested, 0.46% active. Vaccinia virus Venus reporter expression, fluorescence. Potency, µM (doses to about 36.5 µM), for inactives: at the top dose activity change, negative = inhibition, hits mostly inhibitors; active means well fitted inhibition curve with a large enough effect; inconclusive means small, poorly fitted or top-dose-only effect; inactive means no such curve, though single readings can be large or run the other way; tested in A549 cells; note: nearly all actives have a fitted effect of over 30% in size; inactives centre near -10
Starred values were filed as active, the others as inactive; i = inactive; ? = inconclusive; nt = no result given; & = joins results of further samples; [ ] = remark or other dose. % is set by controls: 0 for no effect and ±100 for the full control effect; potency is the fitted concentration of half-maximal effect. Outcome played no part in choosing rows (roughly 0.86% active in at least one column).

A first look:
SMILES	VACV mCherry inh	Vaccinia Venus
O=C(Nc1ccc(F)cc1)C(c1ccccc1)N1CCN(S(=O)(=O)c2ccccc2)CC1 (stereo not drawn)	-28%	-16%
Cc1cccc([C@@H]2[C@@H]3C(=O)N(Cc4ccccc4)C(=O)[C@@H]3[C@]3(Cc4ccccc4)C(=O)N(c4ccccc4)C(=O)N23)c1	i	-19%
COCCN(CC(=O)Nc1cccc(C)c1C)C(=O)C1(c2ccccc2)CC1	-14%	-8%
CCCCc1ccc(S(=O)(=O)NNC(=S)NCc2ccco2)cc1	i	-8%
COC(=O)C1(C)NC(c2ccco2)C2C(=O)N(c3ccc(C)cc3)C(=O)C21 (stereo not drawn)	-14%	-9%
Nc1ccn(C2CC(O)C(CO)O2)c(=O)n1 (stereo not drawn)	i	-13%
CN(C)c1ccc(-c2ccc(CCO)cc2)cc1	25%	-6%
C/C(=N\N=C(/N)SC1CC(=O)N(c2ccccc2)C1=O)c1cccs1 (stereo not drawn)	i	-8%
COc1ccc(NC(=O)c2ccc(C)cc2)c(OC)c1	?	-6%
Cc1c(C(=S)Nc2ccccc2)cnn1-c1ccccc1	-2%	-19%
CC(=O)Nc1ncc(N=Nc2cccc(C(F)(F)F)c2)s1	-1%	-7%
COc1ccc(CN2CCC(Cc3ccccc3)CC2)c(C)c1C	-23%	-6%
[N-]=[N+]=NCCN1CCN(Cc2ccccc2)CCC1=O	-9%	-6%&-4%
CSC1=C(C#N)C(c2ccccc2Cl)C(C(C)=O)=C(C)N1 (stereo not drawn)	-14%	-9%
CC1CCN(C(=O)COc2ccc(S(=O)(=O)N3CCOCC3)cc2)CC1	i	-12%
Cc1ccccc1-n1c(Cn2c(=O)sc3ccccc32)nnc1SCC(=O)NCC1CCCO1 (stereo not drawn)	1%	0%
Cc1nn(-c2ccccc2)c2nc(C3CC3)cc(C(=O)NCc3ccccc3Cl)c12	-11%	-6%
O=C(Nc1ccc2c(c1)OCCO2)c1cc2ccccc2o1	3%	9%
COc1ccc(CNC(=O)CSc2nnc(Cn3nnc4ccccc43)n2C)cc1	i	-4%

All compounds of this part, from the first entry:
SMILES	VACV mCherry inh	Vaccinia Venus
O=C(Nc1ccc(F)cc1)C(c1ccccc1)N1CCN(S(=O)(=O)c2ccccc2)CC1 (stereo not drawn)	-28%	-16%
Cc1cccc([C@@H]2[C@@H]3C(=O)N(Cc4ccccc4)C(=O)[C@@H]3[C@]3(Cc4ccccc4)C(=O)N(c4ccccc4)C(=O)N23)c1	i	-19%
COCCN(CC(=O)Nc1cccc(C)c1C)C(=O)C1(c2ccccc2)CC1	-14%	-8%
CCCCc1ccc(S(=O)(=O)NNC(=S)NCc2ccco2)cc1	i	-8%
COC(=O)C1(C)NC(c2ccco2)C2C(=O)N(c3ccc(C)cc3)C(=O)C21 (stereo not drawn)	-14%	-9%
Nc1ccn(C2CC(O)C(CO)O2)c(=O)n1 (stereo not drawn)	i	-13%
CN(C)c1ccc(-c2ccc(CCO)cc2)cc1	25%	-6%
C/C(=N\N=C(/N)SC1CC(=O)N(c2ccccc2)C1=O)c1cccs1 (stereo not drawn)	i	-8%
COc1ccc(NC(=O)c2ccc(C)cc2)c(OC)c1	?	-6%
Cc1c(C(=S)Nc2ccccc2)cnn1-c1ccccc1	-2%	-19%
CC(=O)Nc1ncc(N=Nc2cccc(C(F)(F)F)c2)s1	-1%	-7%
COc1ccc(CN2CCC(Cc3ccccc3)CC2)c(C)c1C	-23%	-6%
[N-]=[N+]=NCCN1CCN(Cc2ccccc2)CCC1=O	-9%	-6%&-4%
CSC1=C(C#N)C(c2ccccc2Cl)C(C(C)=O)=C(C)N1 (stereo not drawn)	-14%	-9%
CC1CCN(C(=O)COc2ccc(S(=O)(=O)N3CCOCC3)cc2)CC1	i	-12%
Cc1ccccc1-n1c(Cn2c(=O)sc3ccccc32)nnc1SCC(=O)NCC1CCCO1 (stereo not drawn)	1%	0%
Cc1nn(-c2ccccc2)c2nc(C3CC3)cc(C(=O)NCc3ccccc3Cl)c12	-11%	-6%
O=C(Nc1ccc2c(c1)OCCO2)c1cc2ccccc2o1	3%	9%
COc1ccc(CNC(=O)CSc2nnc(Cn3nnc4ccccc43)n2C)cc1	i	-4%
Cc1ccc(NC(=O)Cn2c(=O)n(Cc3nc(C)no3)c(=O)c3cc4c(cc32)OCO4)c(C)c1	-9%	-12%
CN(c1ccc(OCC(=O)OCC(=O)Nc2ccc(F)cc2)cc1)S(=O)(=O)c1ccc(Cl)cc1	-14%	-5%
CCOC(=O)c1c(C)[nH]c(C)c1S(=O)(=O)N(C)CC(=O)NCc1ccc(Cl)cc1	-18%	-11%
CC(C)N(Cc1nc(-c2ccccc2)no1)C(=O)Cc1ccccc1	i	-10%
CC(=O)c1cccc(N2C(=NC(=O)C3CCCCC3)SC3CS(=O)(=O)CC32)c1 (stereo not drawn)	-7%	-5%
O=C(c1ccccc1)N1N=C(c2ccccc2)CC1c1ccccc1O (stereo not drawn)	-25%	-12%

More results.
SMILES	VACV mCherry inh	Vaccinia Venus
CSc1cccc(NC(=O)c2ccc3c(c2)c(C)c(C)n3Cc2ccc(F)cc2)c1	-4%	-8%
CCOC(=O)c1cn2nc(Oc3ccc(C(=O)OC)cc3)ccc2n1	i	5%
CC(=O)NC(=S)Nc1cccc([N+](=O)[O-])c1	-13%	-17%
C/C=C(\C)C(=O)NCCN1Cc2ccccc2OC(c2ccccc2OC)C1 (stereo not drawn)	-21%	-7%
Cc1cc(/C=N/NC(=O)c2nn(C)cc2Cl)c(C)n1-c1cccc(Br)c1	-20%	-9%
COc1ccc(NC(=O)C2CCCN(c3ncnc4onc(C)c34)C2)cc1OC (stereo not drawn)	i	-6%
O=C(N/N=C/C(Br)=C/c1ccccc1)C(O)c1ccccc1 (stereo not drawn)	-20%	-21%
COc1cc(/C=C/c2nc(C#N)c(N3CCCCC3)o2)cc(OC)c1OC	-15%	-18%
CCOC(=O)c1nnn2c1nc(N(CC)CC)c1ccccc12	i	-6%
CC(=O)Nc1ccc(C2NC(=S)N(c3ccccc3C(F)(F)F)C(C)=C2C(=O)N2CCOCC2)cc1 (stereo not drawn)	-3%	-15%
CN1CCN(c2ccc(-c3cccc(NC(=O)COc4ccccc4)c3)nn2)CC1	i	-5%
Nc1nonc1-n1nnc(C(=O)c2ccccc2)c1-c1ccccc1	nt	?
COc1ccc2c(CC(=O)N3CCc4cc(OC)c(OC)cc4C3)coc2c1	-7%	-16%
Cc1ccc(NC(=O)CCC(=O)N/N=C/c2ccc(O)cc2O)cc1	?	-1%
COc1cc(OC)c(OC)cc1/C=N/n1c(C)nc2ccccc2c1=O	11%	-5%
CSc1nc2ccc(NC(=O)NC(=O)c3c(F)cccc3F)cc2s1	i	-9%
COc1cc(NC(=O)CN(c2ccc(C)cc2)S(=O)(=O)c2cccc3nonc23)cc(OC)c1	-10%	-9%
COc1ccc(NC(=S)N(CCCN2CCOCC2)C(C)c2cc3cccc(OC)c3o2)cc1 (stereo not drawn)	-24%	-4%
Nc1nnc(SCc2c(F)cccc2Cl)s1	0%	-22%
O=C1CC[C@H](O)CCN1CCSc1ccc(Br)cc1	-2%	-13%&-11%
COc1ccc(CCCC(=O)N/N=C/c2cccc(OC)c2O)cc1C	?	?
COc1cc(/C=C/C(=O)OCC(=O)c2ccc[nH]2)cc(OC)c1OC	-13%	-7%
Cc1ccc(N(CC(=O)NC2CCCCC2)C(=O)CCCC(=O)Nc2ccccn2)cc1	10%	-6%
COC(=O)c1cc(NC(=O)CC2Oc3ccccc3NC2=O)cc(C(=O)OC)c1 (stereo not drawn)	i	-5%
Cc1c(NS(=O)(=O)c2ccc(N(C)C3CCCCC3)c([N+](=O)[O-])c2)c(=O)n(-c2ccccc2)n1C	i	-1%

Continuation:
SMILES	VACV mCherry inh	Vaccinia Venus
CCOC(=O)c1c(NC(=O)CSc2nc3c(c(=O)n(C)c(=O)n3C)n2C(C)C)sc(C)c1C	-9%	0%
O=S(=O)(c1ccc(-c2csc(=Nc3ccc(F)cc3)n2CCCCCCO)cc1)N1CCCC1	?	-28%
CC(C)CNc1ncnc2c1ncn2[C@H]1CN(Cc2ccncc2)C[C@@H](CO)O1	26%	5%
CCOC(=O)c1[nH]c(C)c(CCC(=O)Nc2cc(Cl)ccc2C)c1C	-4%	-6%
C#CCOCCOCCOCCNc1nc(N2CCN(C(=O)CCCCCCCCCCNC(=O)Cn3cc(C[C@@H](C)O)nn3)CC2)nc(N2CCN(C(=O)CCCCCCCCCCNC(=O)[C@H](CCCCN)n3cc(CCCC(=O)O)nn3)CC2)n1	i	-6%
C[C@H](CO)N1C[C@H](C)[C@@H](CN(C)S(=O)(=O)c2ccc(F)cc2)OCc2cn(nn2)CCCC1=O	i	-13%
CC1C(=O)OC2C(O)C34C5OC(=O)[C@@]3(OC3OC(=O)[C@H](O)[C@]34C(C(C)(C)C)C5O)[C@]12O (stereo partly drawn)	-2%	?
CCO[C@H]1OC(C(=O)NC2CC2)=C[C@@H](C)[C@@H]1CCCO	i	-17%
CS(=O)(=O)Nc1ccc(-c2ccc(/C=C3\SC(N)=NC3=O)o2)cc1	i	45%[activator]
O=[N+]([O-])c1ccc2nc(SCc3cn4ccccc4n3)[nH]c2c1	i	-16%
CN(C(=O)COC(=O)Cn1cnc2ccccc21)C1CCCCC1	i	-12%
O=C(CN1CCN(Cc2ccccc2)CC1)Nc1cccc(S(=O)(=O)N2CCCCCC2)c1	-21%	-18%
Cc1cccc(C)c1NC(=O)CSc1nc(N2CCOCC2)nc(N2CCOCC2)n1	-7%	0%
COc1cccc(NC(=O)Cn2c(=O)n(CCC(=O)NCc3ccccc3OC)c(=O)c3ccccc32)c1	-13%	-6%
Cc1cccc(-n2c(C)cc(/C=N/O)c2C)c1	-5%	-9%
C=CCNC(=S)Nc1sc2c(c1C(=O)OCC)CCN(C(=O)OCC)C2	nt	-16%
C=CCn1cc(C(=O)OC)c(=O)c2cc(S(=O)(=O)N3CCCCCC3)ccc21	-5%	4%
CCOC(=O)[C@H]1[C@H]2COc3cc(OC)ccc3[C@@H]2N2C(=O)N(c3cccc(Cl)c3)C(=O)[C@@]12C	i	-17%
CC(C)NC(=O)c1ccccc1NS(=O)(=O)c1ccc(Br)s1	-19%	-23%
Cc1cccc(-c2nnc(NC(=O)c3cccs3)s2)c1	i	-5%
N#CC1(C(N)=O)OC12CCS(=O)(=O)c1ccccc12 (stereo not drawn)	-12%	-26%
O=C(CNCc1ccccc1)NC1C2CC3CC(C2)CC1C3 (stereo not drawn)	-27%	-24%
COC(=O)C1CCN(C(=O)COC(=O)c2ccc(OC)c(S(=O)(=O)N3CCCc4ccccc43)c2)CC1	-14%	-22%
CCN(CC)c1ccc(C(=C2C=CC(=[N+](CC)CC)C=C2)c2ccccc2)cc1	?	2µM*
COC(=O)[C@]12CCCCC=C1N(Cc1ccccc1)C(=O)[C@H](CC(=O)NCCC(C)C)C2	-12%	-9%

(continued)
SMILES	VACV mCherry inh	Vaccinia Venus
O=C(O)c1cnc(-c2ccccc2)nc1Oc1ccc(Cl)cc1	7%	-3%
COc1ccc2c(c1)NC1(O)c3ccccc3C(=O)C21O (stereo not drawn)	-18%	-9%
Cc1cccc(-c2nc3c(c(SCC(=O)N4CCOCC4)n2)CCCC3)c1	nt	4%
COc1ccc(Br)cc1-c1noc(-c2ccncc2)n1	-16%	-14%
O=[N+]([O-])c1ccc(S(=O)(=O)c2ccccc2)nc1	-20%	?
COc1ccc(-c2nn(-c3ccccc3)cc2/C=C/C(=O)N2CCOCC2)cc1OC	i	-7%
Cc1c(N)c(=O)n(-c2ccccc2)n1C	-16%&0%	-8%&-15%
O=C(CCSCCC(=O)NCc1ccco1)NCc1ccco1	-12%	-11%
Cc1nc2sccn2c(=O)c1S(=O)(=O)Nc1cc(Cl)ccc1O	-26%	-15%
Cc1ccc2nc(N3CCC(C(=O)N4CCN(c5cccc(Cl)c5)CC4)CC3)[nH]c2c1	-29%	-26%
CN(C(=O)COC(=O)Cc1c(Cl)cccc1Cl)c1c(N)n(Cc2ccccc2)c(=O)[nH]c1=O	i	-6%
COc1ccccc1NC(=O)N1CCN(c2ccccc2F)CC1	-12%	-12%
CCC(OC(=O)c1cccs1)C(=O)NCc1ccc(C)cc1 (stereo not drawn)	i	-10%
C=CCn1c(O)c(C(=O)CCCCCC)c(=O)[nH]c1=O	nt	?
Cc1cc(C)c(C)c(OCC(=O)NCc2nc(-c3ccccc3)no2)c1	nt	?
CC(=O)c1ccc(NC(=O)CCc2c(C)nn(-c3ccc4nnc(C)n4n3)c2C)cc1	-7%	-11%
O=C1CC(N2CCC(n3c(=O)[nH]c4ccccc43)CC2)C(=O)N1c1ccc(F)cc1 (stereo not drawn)	-11%	-8%
CCc1cc2c(=O)n(-c3ccccc3)c(SCC(=O)O)nc2s1	-9%	-9%
CC(/C=N/NC(=O)c1cc(-c2ccccc2)nc2ccccc12)=C\c1ccco1	?	-21%
N=c1c2c(-c3ccccc3)c(-c3ccccc3)n(Cc3ccco3)c2ncn1CCCN1CCOCC1	-24%	?
COc1ccc(-c2nc3ccc(C)cn3c2NCc2ccccc2)cc1SC1CCCCC1	i	?
CCc1ccc(NC(=O)C2CCCN2S(=O)(=O)c2ccc3c(c2)n(C)c(=O)c(=O)n3C)cc1 (stereo not drawn)	-9%	0%
CCn1c(Cc2ccccc2)nnc1SCC(=O)Nc1ccc(N)cc1	i	-2%
O=C(NC(=O)c1c(F)cccc1F)Nc1ccccc1SC(F)F	?	-10%
CC(C)Oc1ccc(C(=O)NC2CCN(Cc3ccccc3)CC2)cc1	-9%	-18%
